# Source: PubChem
# eIF4H FP inh – inhibitors of RNA binding by human eIF4H; Q15056; eIF4H fluorescence polarization binding assay; inhibition, % at 35 µM; hit rate 0.94% among 290,000; AID 2012;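 active = 50% or more with normal probe brightness, or confirmed in later tests; inconclusive = above 50% with abnormal brightness, or retests that disagree; inactive = below 50% or failed in later tests; about a fifth of its hits are not listed in these tables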;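 also: calls also rest on retests at 20 µM and on dose response follow-up; 0% = protein and probe with vehicle and 100% = probe without protein; strong numbers were not always called active; many hits fall short of the cut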
# PABP polyA inh – PABP-poly(A) binding inhibition | P11940 | PABP-poly(A) RNA binding, fluorescence polarization | inhibition, % at 35 µM | hit rate 1% among 290,000 | AID 2014;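 active = 50% or more with normal probe brightness, or confirmed in later tests; inconclusive = above 50% with abnormal brightness, or retests that disagree; inactive = below 50% or failed in later tests; about a fifth of its hits are not listed in these tables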;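 also: calls also rest on retests at 20 µM and on dose response follow-up; controls were probe without protein and protein plus probe with vehicle; some compounds called inactive have numbers as strong as hits; many hits fall short of the cut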
# Target sequence (P11940 whole entry, looked up): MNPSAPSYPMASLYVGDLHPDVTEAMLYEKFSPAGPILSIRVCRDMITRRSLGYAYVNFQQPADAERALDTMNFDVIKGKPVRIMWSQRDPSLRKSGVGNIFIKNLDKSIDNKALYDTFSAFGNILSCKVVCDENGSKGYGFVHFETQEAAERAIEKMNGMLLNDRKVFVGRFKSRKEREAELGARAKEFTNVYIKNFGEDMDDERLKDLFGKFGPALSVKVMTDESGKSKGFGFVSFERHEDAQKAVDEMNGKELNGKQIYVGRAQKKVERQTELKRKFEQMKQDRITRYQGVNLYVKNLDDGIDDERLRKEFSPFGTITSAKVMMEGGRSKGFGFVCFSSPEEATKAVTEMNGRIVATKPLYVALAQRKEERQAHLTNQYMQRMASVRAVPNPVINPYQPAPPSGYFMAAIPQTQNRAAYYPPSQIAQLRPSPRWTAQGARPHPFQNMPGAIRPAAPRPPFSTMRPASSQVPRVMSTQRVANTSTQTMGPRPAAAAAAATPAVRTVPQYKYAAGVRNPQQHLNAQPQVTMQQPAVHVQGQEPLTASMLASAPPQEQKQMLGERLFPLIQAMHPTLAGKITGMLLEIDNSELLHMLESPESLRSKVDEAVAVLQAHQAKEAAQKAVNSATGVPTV
# Env fusion inh – inhibitors of HIV Env-mediated cell fusion; inhibition, % at 12.3 µM; AID 651610; hit rate 1.1% among 360,000; HeLa-JRFL Env/CEM21 cell fusion, luciferase;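 active = mean replicate inhibition score of at least 50 and every replicate individually at or above 50; inconclusive = only one of the two criteria met; inactive = mean below 50 and not all replicates reaching 50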;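 also: 0% = plate neutral controls and 100% = maraviroc near 300 nM; one replicate is shown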
# Rce1 inh – blocks yeast Ras-converting enzyme | yeast membranes, quenched prenylated peptide cleavage fluorescence | Q03530 | calls only | hit rate 0.27% among 290,000;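 active = fall in fluorescence gain of 50% or more versus controls, with final raw signal at or below 3038400; inconclusive = same 50% fall but final raw signal above 3038400; inactive = fall in fluorescence gain under 50%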;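 also: plate controls were neutral control wells for no effect and wells lacking membranes for full effect; tested at 10 µM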
# Target sequence (Q03530 whole entry, looked up): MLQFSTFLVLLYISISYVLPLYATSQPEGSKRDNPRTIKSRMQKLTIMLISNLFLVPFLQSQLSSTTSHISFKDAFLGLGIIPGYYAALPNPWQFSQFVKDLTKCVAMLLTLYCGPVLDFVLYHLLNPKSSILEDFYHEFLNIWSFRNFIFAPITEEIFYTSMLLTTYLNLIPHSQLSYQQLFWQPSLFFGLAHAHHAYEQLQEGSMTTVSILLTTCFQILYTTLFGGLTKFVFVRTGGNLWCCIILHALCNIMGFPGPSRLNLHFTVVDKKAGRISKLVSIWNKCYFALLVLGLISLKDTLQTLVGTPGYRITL
# MT1-MMP act inh – inhibitors of human MT1-MMP activation; hit rate 0.061% among 360,000; GFP/RFP ratio change, % at 20 µM; AID 651647; HT1080 RFP-PRO-GFP cells, GFP/RFP ratio fluorescence, overnight; percent of plate control window, DMSO zero; P50281;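 active = GFP/RFP ratio change of at least 30% with cell ATP level not reduced by more than half and red fluorescence within 50% of control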; also: strong numbers were not always called active
#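 Assay system: HT1080 cells carrying an RFP-PRO-GFP reporter | Dosing: Single dose of 20 µM compound, 1% DMSO final | Incubation: Cells overnight before dosing, compound overnight, 37 °C, 5% CO2 | Evaluation: GFP/RFP fluorescence ratio | Control set: DMSO and RFP-L50D-GFP cell wells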
# Yeast UUG start – modulators of start codon recognition fidelity in yeast. S. cerevisiae UUG-firefly luciferase reporter, luminescence/redox ratio. activity score, % at 18.7 µM. hit rate 0.13% among 350,000. AID 602363;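 active = replicate mean at a twofold rise or more, about +100% in these data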;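 also: firefly luciferase made from a UUG start codon reports start codon fidelity; reporter light over untreated wells divided by growth signal over untreated wells; some hits fall short of that in this replicate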
# CSC inhib – blocks cancer stem cells. cancer stem cell-like cells viability, luminescence. hit rate 1.1% among 300,000. inhibition, % at 7.5 µM;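 active = mean at 75% or more and at least half the replicates too; inconclusive = mean and replicates disagree; tested in HMLE shEcad cells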;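 also: 0% = median of negative and 100% = median of positive control wells; the first replicate is given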
# MT1-MMP act inh RFP – second read-out of MT1-MMP act inh, no call of its own (marks repeat the call); RFP signal change, %; measured here: RFP expression control read;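 0 = vehicle wells; hits needed this value within 50% of zero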
# * hit, by the source's call; i = inactive; ? = inconclusive; nt = not tested or not shown; & = joins results of further samples.
SMILES,eIF4H FP inh,PABP polyA inh,Env fusion inh,Rce1 inh,MT1-MMP act inh,MT1-MMP act inh RFP,Yeast UUG start,CSC inhib
Cc1cccc(OCC(=O)NNC(=O)c2ccc3nc[nH]c3c2)c1,nt,nt,nt,nt,1,2,-16,-21
Cc1ccc2c(C(=O)CN3CCN(c4ccccc4)CC3)c(C)[nH]c2c1,-5,-6,nt,i,4,5,-10,nt
CC1CCN(S(=O)(=O)c2cccc(C(=O)NCC3CCCO3)c2)CC1 (stereo not drawn),1,10,-18,i,2,-5,-12,0
CS(=O)(=O)CCC(C(=O)n1nnc2ccccc21)N1C(=O)c2ccccc2C1=O (stereo not drawn),6,14,nt,i,-1,7,-18,1
CC(Oc1ccccc1)C(=O)NC1CCN(Cc2ccccc2)CC1 (stereo not drawn),-5,-2,-48,i,1,2,-16,9
Cc1cccc(CS(=O)(=O)Cc2ccc(C(=O)O)o2)c1,1,25,nt,i,2,5,-20,-10
CCOC(=O)c1ccc(Cl)c(S(=O)(=O)N2CCCC2)c1,5,-2,-9,i,-4,0,nt,7
O=C(CSc1nc2ccsc2c(=O)n1CC1CCC(C(=O)O)CC1)c1ccc(F)cc1 (stereo not drawn),-11,5,6,nt,8,3,-11,-1
CNCC(O)c1ccc(O)c(O)c1 (stereo not drawn),nt,nt,1,i,2,3,-15,3
COC(=O)c1cc(N=Nc2sc(N)nc2C)cc(C(=O)OC)c1,2,5,-20,i,10,3,-21,42
C#CCNC(=O)C1=C[C@@H](C2CCCCC2)C[C@@H](OCCCCO)O1,-7,10,-9,i,4,7,-17,3
O=Cc1ccc(OCC(=O)NCC2CCCO2)cc1 (stereo not drawn),-17,3,7,i,1,2,1,-6
COc1ccc(NC(=O)CCN2CCOCC2)c(OC)c1,-9,2,2,i,1,5,-1,-6
CCN(CC)S(=O)(=O)c1ccc(C(=O)Nc2ccc3c(c2)OCO3)cc1,-9,-4,14,i,1,1,nt,1
Cc1ccc(C)c(OCCC(=O)OCC(=O)c2ccc3c(c2)NC(=O)CO3)c1,nt,nt,-133,i,0,-2,-6,-4

# Next section, overlapping the part above by 6 compounds.
SMILES,eIF4H FP inh,PABP polyA inh,Env fusion inh,Rce1 inh,MT1-MMP act inh,MT1-MMP act inh RFP,Yeast UUG start,CSC inhib
COC(=O)c1cc(N=Nc2sc(N)nc2C)cc(C(=O)OC)c1,2,5,-20,i,10,3,-21,42
C#CCNC(=O)C1=C[C@@H](C2CCCCC2)C[C@@H](OCCCCO)O1,-7,10,-9,i,4,7,-17,3
O=Cc1ccc(OCC(=O)NCC2CCCO2)cc1 (stereo not drawn),-17,3,7,i,1,2,1,-6
COc1ccc(NC(=O)CCN2CCOCC2)c(OC)c1,-9,2,2,i,1,5,-1,-6
CCN(CC)S(=O)(=O)c1ccc(C(=O)Nc2ccc3c(c2)OCO3)cc1,-9,-4,14,i,1,1,nt,1
Cc1ccc(C)c(OCCC(=O)OCC(=O)c2ccc3c(c2)NC(=O)CO3)c1,nt,nt,-133,i,0,-2,-6,-4
COc1ccc(-c2noc(CNC(=O)c3ccc4c(c3)OCO4)n2)cc1,1,10,7,i,3,4,-6,-8
Cc1cc(C(=O)NC2CCCc3c2cnn3-c2ccc(C(C)(C)C)cc2)nn1C (stereo not drawn),-11,-12,82*,nt,4,-30,-15,36
Cc1cc(Cl)ccc1OCCCC(=O)OCC(=O)Nc1cccc(S(N)(=O)=O)c1,nt,nt,-12,nt,0,2,-2,nt
CCC[C@@H]1C[C@@H](C(=O)N[C@H]([C@@H](C)O)[C@H]2O[C@H](SC)[C@H](O)[C@@H](O)C2O)N(C)C1 (stereo partly drawn),1,3,0,i,3,1,1&-6,nt
CCCN1Cc2cccc(C(=O)NCc3ccccc3OC)c2C1=O,2,3,-15,i,-2,0,7,12
Cc1ccc(C(=O)NC2CCS(=O)(=O)C2)cc1S(=O)(=O)N1CCCCCC1 (stereo not drawn),0,6,11,i,4,3,nt,-6
CN(C)c1ccc(/C=[N+](\[O-])C2N(c3ccccc3)C(=S)SC2(C)C)cc1 (stereo not drawn),1,3,-11,i,-1,-1,-25,4
CC(C)n1cc(/C=C2/NC(=O)NC2=O)c2ccccc21,-13,1,-11,i,-1,-3,nt,-7
CS(=O)(=O)c1nc(S(=O)(=O)c2ccc(Cl)cc2)c(N2CCC(O)CC2)s1,-4,5,-8,i,-2,2,-13,13
Cc1cc(C)c(C2=CC(=O)C[C@H](c3ccc4c(c3)OCO4)C2)c(C)c1,nt,nt,31,nt,3,3,-6,35
C=CCn1c(COc2ccc(Cl)cc2)nnc1SCC(=O)Nc1ccc(S(N)(=O)=O)cc1,7,-5,nt,i,3,1,-12,-14
O=C(O)CCCC(=O)N1CCN(c2nc(-c3ccccc3)c3ccccc3n2)CC1,7,6,-1,i,-3,1,-2,7
O=C(Cc1ccc(-c2ccccc2)cc1)OCC(=O)N1CCCC1=O,5,-7,7,i,-1,-5,nt,-1
O=c1cc(CN2CCN(Cc3ccccc3)CC2)c2ccc(O)c(O)c2o1,26,9,-4,i,6,-3,16,23
O=C(NCc1ccc(F)cc1)c1cc(C2CCCCN2C(=O)c2ccccc2)on1 (stereo not drawn),nt,nt,17,nt,4,-1,28,nt
CCCCNC(=O)c1onc(CSc2ccc(F)cc2)c1C(=O)NCCCC,-13,-7,21,i,1,3,-9,69
Nc1nc(-c2cccc(Br)c2)cs1,-7,6,-9,i,0,-1,-12,-9
CC(=O)c1cccc(OC(=O)C2=CC=CN3CCS(=O)(=O)N=C23)c1,nt,nt,4,nt,-2,2,-12,0
c1cnc2ccc(C(c3nnnn3C3CCCCC3)N3CCN4CCCC4C3)cc2c1 (stereo not drawn),2,-3,-30,i,-8,4,-7,5
Cc1nccc(-c2sc(-c3cccs3)nc2C)n1,2,2,-14,?,-1,4,nt,-11
O=C(/C=C/c1ccco1)NCC1CCCO1 (stereo not drawn),13,8,nt,i,-1,2,-14,2
COc1ccc2[nH]c3c(c2c1)CCN1C(=O)N([C@@H](C)C(=O)NC2CCN(Cc4ccccc4)CC2)C(=O)[C@]31C,6,-6,nt,i,3,1,5,-2
O=C(NC1CCCc2ccccc21)C1CCN(S(=O)(=O)c2ccccc2)CC1 (stereo not drawn),-8,5,4,i,2,2,5,-4
O=c1[nH]c2cc3c(cc2cc1C(c1nnnn1Cc1ccccc1)N1CCN2CCCC2C1)OCCO3 (stereo not drawn),-10,-7,-53,i,-4,4,-8,nt
COc1cc([N+](=O)[O-])c(N2CCOCC2)c([N+](=O)[O-])c1OC,-2,11,3,i,1,-2,nt,-3
CCCn1c(SCC(=O)Nc2cc(Cl)ccc2Cl)n[nH]c1=O,-3,-4,-79,i,2,-3,6,-2
CC1CCc2nn(CC(=O)Nc3ccc(F)cc3F)cc2C1 (stereo not drawn),7,-13,-8,i,-3,3,-16,nt
Cc1nc(N2N=C(c3ccc(Cl)cc3)CC2c2ccco2)sc1C(=O)N(C)C (stereo not drawn),15,2,31,i,-2,-4,-9,3
NS(=O)(=O)c1cccc(NC(=O)CC2(CC(=O)O)CCCC2)c1,-4,-3,-2,i,0,5,nt,14
O=C(NCc1ccco1)c1cnn2c(C(F)(F)F)cc(-c3cccs3)nc12,-1,22,nt,i,-3,-2,-15,-6

# A draw from above in order of molecular weight, largest number first:
SMILES,eIF4H FP inh,PABP polyA inh,Env fusion inh,Rce1 inh,MT1-MMP act inh,MT1-MMP act inh RFP,Yeast UUG start,CSC inhib
c1cnc2ccc(C(c3nnnn3C3CCCCC3)N3CCN4CCCC4C3)cc2c1 (stereo not drawn),2,-3,-30,i,-8,4,-7,5
CC1CCc2nn(CC(=O)Nc3ccc(F)cc3F)cc2C1 (stereo not drawn),7,-13,-8,i,-3,3,-16,nt
O=C(/C=C/c1ccco1)NCC1CCCO1 (stereo not drawn),13,8,nt,i,-1,2,-14,2

# Additional records follow.
SMILES,eIF4H FP inh,PABP polyA inh,Env fusion inh,Rce1 inh,MT1-MMP act inh,MT1-MMP act inh RFP,Yeast UUG start,CSC inhib
Cc1ccc(S(=O)(=O)N2CCOCC2)cc1NC(=O)COC(=O)Cc1cccs1,nt,nt,-14,i,8,3,nt,nt
COC(=O)c1nc(-c2ccc(C)cc2)oc1N(C)C,-5,-5,nt,?,-3,-1,-11,-9
CC(C)n1nc(C(=O)NCCCN2CCCC2=O)c2ccccc2c1=O,-24,0,8,i,0,-1,13,-6
COc1ccccc1C(=O)Nc1ccc2c(c1)nc1n2CCN(C2CCCCC2)C1,-11,-12,4,i,0,4,-9,-18
CCOc1ccccc1C(=O)N1CCN=C1SC,2,0,nt,i,-2,3,23,0
CCCNC(=O)C1(CC2CC(c3ccccc3)=NO2)CCNCC1 (stereo not drawn),nt,nt,-3,i,5,3,-4,4
CC(C)(C)N(Cc1ccccc1)C(=O)c1cc2ccccc2o1,-3,-11,19,i,-3,-4,-20,78*
CCn1nnc(-c2ccccc2NS(=O)(=O)c2ccc(C(=O)OC)cc2)n1,-6,-2,-11,i,5,0,-8,nt
Cc1c(-c2cc(C(=O)O)c3ccccc3n2)cnn1C,2,-10,-18,i,3,6,-7,17
CC1(C)OCC(C2CC(c3ccccc3)NS(=O)(=O)O2)O1 (stereo not drawn),0,9,4,i,-3,5,-43,-5
Nc1[nH]n2c(=O)cc(-c3ccccc3)nc2c1N=Nc1ccc(S(N)(=O)=O)cc1,2,-3,2,i,nt,nt,nt,-8
CCCCN1C(=S)NC[C@@H]1Cc1ccc(O)cc1,2,-11,-19,i,0,3,-12,-14
CCOCCCNC(=O)CN1C(=O)COc2ccc(S(=O)(=O)N3CC(C)CC(C)C3)cc21 (stereo not drawn),0,0,29,i,-4,-1,-4,-4
CN(C)CCOCCOc1ccc(Cl)cc1Br,16,5,16,i,2,4,-10,-3
Cc1ccccc1NC(=O)N1CCCN(c2ccc(C#N)cn2)CC1,3,10,13,i,4,-1,-7,-3

# Reprinted at random: three compounds from above.
SMILES,eIF4H FP inh,PABP polyA inh,Env fusion inh,Rce1 inh,MT1-MMP act inh,MT1-MMP act inh RFP,Yeast UUG start,CSC inhib
CS(=O)(=O)CCC(C(=O)n1nnc2ccccc21)N1C(=O)c2ccccc2C1=O (stereo not drawn),6,14,nt,i,-1,7,-18,1
C#CCNC(=O)C1=C[C@@H](C2CCCCC2)C[C@@H](OCCCCO)O1,-7,10,-9,i,4,7,-17,3
CCC[C@@H]1C[C@@H](C(=O)N[C@H]([C@@H](C)O)[C@H]2O[C@H](SC)[C@H](O)[C@@H](O)C2O)N(C)C1 (stereo partly drawn),1,3,0,i,3,1,1&-6,nt

# Not all compounds are listed; rates above refer to the full screens.
